Screens: PubChem, National Center for Advancing Translational Sciences (NCATS)
Sfp inh = blocks B. subtilis Sfp PPTase activity; Q9F4F7; Potency, µM, without a hit: max response, negative = inhibition, usual class: inhibitors; AID 1490; 310,000 tested, 3.5% active; Biochemical Sfp PPTase activity, qHTS; active = well fitted inhibition curve with a large enough effect; inconclusive = small, poorly fitted or top-dose-only effect, or another doubt; inactive = no such curve, though single readings can be large or run the other way;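 also: the enzyme is Sfp with the accession as filed and its product quenches rhodamine fluorescence; potency is read from the fitted curve at half-maximal effect; 0% = enzyme reaction without inhibitor and -100% = no enzyme wells; top concentration of the series not given in the record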
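After 15 min at room temperature with compound, 15 nM Sfp received 5 uM rhodamine-CoA plus 12.5 uM BHQ-2-ybbR (50 mM Hepes pH 7.6, 10 mM MgCl2). Rate came from the fluorescence difference over 30 min, ex 525/em 598 nm.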
D2 PAM = positive allosteric modulators of human D2 dopamine receptor; P14416; DiscoveRx D2 beta-arrestin cells, luminescence, 90 min; 100% = 57 uM dopamine signal; potentiation, % (test concentration not listed); 360,000 tested, 0.23% active; active = potentiation of 50% or more; inconclusive = 30% to 50%; inactive = 30% or less;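 also: compound concentration not given in the record; tested on top of an EC20 dose of dopamine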
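PathHunter beta-arrestin assay in DiscoveRx D2 cells. Compounds were added with an EC20 of dopamine (50 nM final) for 90 min at 37 deg C. Luminescence was read 1 h after detection reagent, with 57 uM dopamine as the EC100 control.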
CtBP-E1A blk = inhibitors of CtBP/E1A interaction; activity change, % (concentration not given with the values); AlphaScreen GST-E1A/His-CtBP binding, 1536-well; active compounds read low; control for the full effect not named in the record; 340,000 tested, 0.49% active; in the data active means activity change below about -65%; inconclusive means about -30% to -65%; inactive means above about -30%; also: % is scaled to controls: 0 for no effect and ±100 for the full control effect
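Steps: dispense buffer (Tris pH 8.0, NaCl 300 mM, TCEP 1 mM, BSA, Tween 20); add 5X protein mix (GST-E1A, His-CtBP, 125 nM each); pin 23 nL compound; 2 h at 37 °C, dark; add 5X beads (50 ug/mL); 1 h; read.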
D2 ag = activates the human D2 dopamine receptor; P14416; DiscoveRx PathHunter D2 beta-arrestin, luminescence, 90 min; 100% = 57 uM dopamine signal; activation, % (concentration not given with the values); 360,000 tested, 0.084% active; in the data active = activation above about 40%; inconclusive = about 15% to 40%; inactive = below about 15%; also: compound concentration not given in the record; the text of the record calls up to 30% inactive
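Agonist mode: compounds alone added to overnight-plated D2 PathHunter cells for 90 min at 37 C, with 57 uM final dopamine (EC100) defining full response. Beta-arrestin recruitment detected by chemiluminescent reagent, read after 1 h at ambient temperature.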
Six1-Eya2 inh = blocks human Six1 binding to Eya2; 360,000 tested, 0.56% active; activity change, % (concentration not given with the values); AlphaScreen GST-Six1/His-Eya2 binding, biochemical; active compounds read low; control for the full effect not named in the record; AID 651725; Q15475+O00167; in the data active = activity change below about -65%; inconclusive = about -30% to -65%; inactive = above about -30%; also: % is scaled to controls: 0 for no effect and ±100 for the full control effect
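AlphaScreen luminescence read after one hour at 37 °C in darkness. Pin-transferred compounds met GST-Six1 and His-Eya2 protein (5X stock 250 nM/500 nM) plus glutathione donor and Ni-chelate acceptor beads (5X, 50 ug/mL).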
PINK1 modulator = changes PINK1 expression; PINK1 immunofluorescence, high-content cytometry, 24 h; Potency, µM (series often up to 76.6 µM), without a hit: at the top dose activation (PINK1 increase), most hits filed as activators; 410,000 tested, 0.2% active; AID 624263; active = well fitted activation curve with a large enough effect; inconclusive = small, poorly fitted or top-dose-only effect; inactive = flat fitted curve, though single readings scatter; cell line not stated here;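 also: potency is read from the fitted curve at half-maximal effect; % of control where 0% means no effect; nearly all actives have a fitted effect of over 65% in size; a mitochondrial uncoupler was the plate control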
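Cells are seeded, rested 12 hours, then given compound at five concentrations or DMSO for 24 hours. After fixation, blocking and antibody staining, PINK1 amount and mitochondrial localization are scored; CCCP serves as control.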
TRPV1 potentiator = enhances activation of the human vanilloid receptor TRPV1; Q8NER1; AID 540277; potentiation, % at 8.33 µM; 320,000 tested, 0.02% active; TRPV1-expressing cells, Fluo-8 calcium influx, capsaicin EC20 potentiation; host cell line not named in the record; control for the full effect not named in the record; active means potentiation above 80%; inconclusive means 30% to 80%; inactive means below 30%; also: 0% is about no effect
Target sequence (Q8NER1 whole entry, looked up): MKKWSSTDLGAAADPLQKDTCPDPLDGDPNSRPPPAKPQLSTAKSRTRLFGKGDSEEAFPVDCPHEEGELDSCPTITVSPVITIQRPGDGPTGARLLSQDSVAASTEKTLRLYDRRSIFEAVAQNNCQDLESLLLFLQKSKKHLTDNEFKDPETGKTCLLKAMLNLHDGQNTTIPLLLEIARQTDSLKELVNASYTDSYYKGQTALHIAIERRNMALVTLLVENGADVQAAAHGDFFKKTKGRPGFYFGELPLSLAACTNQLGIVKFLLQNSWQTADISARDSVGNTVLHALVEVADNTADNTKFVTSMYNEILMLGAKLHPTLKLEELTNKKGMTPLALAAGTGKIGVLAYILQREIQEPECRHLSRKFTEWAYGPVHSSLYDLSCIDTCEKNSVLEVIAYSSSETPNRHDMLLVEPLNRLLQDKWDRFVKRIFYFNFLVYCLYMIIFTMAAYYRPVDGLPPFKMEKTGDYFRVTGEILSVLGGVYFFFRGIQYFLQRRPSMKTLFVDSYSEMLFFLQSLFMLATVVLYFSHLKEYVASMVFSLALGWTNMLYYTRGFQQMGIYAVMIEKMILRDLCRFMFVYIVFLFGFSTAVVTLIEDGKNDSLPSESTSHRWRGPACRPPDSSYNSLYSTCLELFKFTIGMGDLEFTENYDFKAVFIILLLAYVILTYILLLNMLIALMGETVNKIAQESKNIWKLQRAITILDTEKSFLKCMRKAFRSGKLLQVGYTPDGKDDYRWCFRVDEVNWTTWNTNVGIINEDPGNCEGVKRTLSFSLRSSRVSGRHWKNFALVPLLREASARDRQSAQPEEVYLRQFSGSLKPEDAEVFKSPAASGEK
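Cells expressing TRPV1 were dye-loaded with Fluo-8 and read kinetically: 10 s baseline, 3 min after compound (agonist portion), then 2 min after EC20 capsaicin (allosteric enhancer portion). Calcium-bound dye fluorescence at 480/520 nm.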
Active calls of the source: *; ? = inconclusive; . = no result given; [ ] = remark or other dose.

Values run as follows: Sfp inh | D2 PAM | CtBP-E1A blk | D2 ag | Six1-Eya2 inh | PINK1 modulator | TRPV1 potentiator
1) CC(=O)N1CN(S(=O)(=O)c2ccc(C)cc2)CC1C (stereo unspecified)
  5% | -9 | 8 | 0.1 | 5 | . | 3
2) O=C(CSc1nc2ccccc2c(=O)n1CCCO)N1CCc2ccccc21
  ? | 8 | 17 | -0.1 | 2 | 0.6% | -5
3) S=c1[nH]nc(-c2cccc(Cl)c2)n1/N=C/c1ccc(-c2ccccc2Br)o1
  -5% | -7 | 6 | -3.3 | 5 | 6.8% | 3
4) O=C(COC(=O)CNS(=O)(=O)c1ccc(F)c(F)c1F)NC1CC1
  . | -6 | 1 | -9.5 | 7 | -1.9% | 23
5) Cc1ccccc1-n1ccnc1SCC(=O)NC1CCCC1
  6% | -1 | . | -0.8 | -5 | 0.7% | 1
6) COc1ccc(-c2csc3ncnc(N4CCN(S(=O)(=O)c5cccc(F)c5)CC4)c23)cc1
  . | -6 | 5 | -2.2 | 1 | -1.3% | -4
7) CCNC(=S)N1CCN(CC(=O)Nc2ccc(Br)cc2)CC1
  1% | -12 | -4 | 0.2 | -2 | 0.5% | -20
8) CCCCNC(=O)CSc1nc2n[nH]c(C)c2c(=N)n1-c1cccc(Cl)c1C
  13% | 3 | -1 | 7.4 | 3 | 3.7% | -14
9) Cc1cccc(CSc2ncc(CO)n2C)c1
  19% | -6 | 2 | -11 | 9 | -1.7% | 17
10) Cc1cc(NC(=O)Cn2c(C)nc3ccccc3c2=O)ccc1Br
  -1% | -9 | -4 | -1.9 | 2 | ? | 8
11) CCOC(=O)CC/C(C)=N\N=C1\SC(CC(=O)O)C(=O)N1c1ccccc1 (stereo unspecified)
  11% | -2 | 0 | -0.9 | 7 | 3.1% | 12
12) CCOc1ccc(N2CC(C(=O)Nc3ccccc3F)CC2=O)cc1 (stereo unspecified)
  0% | -6 | -1 | -3.1 | 4 | -3.6% | -4
13) C#CCSc1[nH]c(=O)cc(C)c1C#N
  -23% | -1 | 3 | 1.4 | -1 | -0.7% | -1
14) CN(C)C(=O)C[n+]1cccc(/C=N/O)c1
  14% | -7 | -16 | -1.0 | -2 | 2.3% | -10
15) CC1=C([N+](=O)[O-])C(c2ccccc2C(F)(F)F)NC(=O)N1C (stereo unspecified)
  8% | -2 | 5 | -7.1 | -9 | -0.3% | -5
16) CC(C)(C)c1nc(-c2ccccc2)nc2c1OCCC2
  . | 0 | 11 | 2.6 | 12 | 11% | ?
17) Cc1ccc(S(=O)(=O)N2CCN(S(C)(=O)=O)C2C)cc1 (stereo unspecified)
  . | 1 | 16 | 1.3 | 9 | -2.4% | -13
18) CCOC(=O)COc1ccc(Br)cc1/C=C1\SC(N)=NC1=O
  -19% | -20 | . | -2.7 | -1 | -0.1% | -5
19) Cc1nc(COc2ccc(C(=O)Nc3ccccc3N3CCOCC3)cc2)cs1
  12% | 13 | 0 | 4.0 | -3 | 1.6% | -5
20) O=C(O)CSc1c2c(nc3cc(C(=O)Nc4cccc(C(F)(F)F)c4)ccc13)CCC2
  -24% | 0 | -7 | -5.2 | -17 | -0.4% | 8
21) Cc1ccc(SCC(=O)OCC(=O)NCC2CCCCC2)cc1C
  . | 2 | -7 | -0.2 | 8 | 2.9% | -29
22) C=C(C)Cn1c(-c2cccs2)n[nH]c1=S
  -16% | -6 | 2 | 2.2 | -3 | 0.9% | 0
23) COc1ccc(-c2csc(NC(=O)CSc3nnc(Nc4ccccc4C)s3)n2)cc1
  16% | 0 | 3 | 4.8 | -1 | -1.0% | 15
24) N/C(=N\OC(=O)c1cccc2ccccc12)c1ccccn1
  -6% | 16 | 5 | 8.9 | 0 | 7.4% | -9
25) CCOC(=O)c1ccc(NC(=O)CSc2nc(C)cc(=O)[nH]2)cc1
  0% | -1 | -1 | -1.1 | -9 | -3.1% | 2
26) O=C(NN1CCOCC1)c1ccccc1F
  7% | -27 | 4 | -3.2 | -5 | -1.1% | 1
27) Cc1ccc(S(=O)(=O)N(C)Cc2nc(-c3ccncc3)no2)cc1
  32%[activator] | 18 | 6 | -2.0 | 1 | -2.3% | 26
28) Cn1nc(C(=O)OCC(=O)Nc2ccccc2[N+](=O)[O-])c2ccccc2c1=O
  . | -2 | -8 | -1.4 | 0 | 2.0% | -1
29) COc1ccccc1NC(=O)N1c2ccccc2NC(=O)CC1C (stereo unspecified)
  8% | 1 | -7 | -1.4 | 7 | -0.6% | 2
30) COc1ccc(C)cc1S(=O)(=O)N(C)CC(=O)N1CCCC1
  16% | 0 | 3 | 1.1 | 2 | 1.0% | -3

Retrieved by structure from the entries so far (6):
Values run as follows: Sfp inh | D2 PAM | CtBP-E1A blk | D2 ag | Six1-Eya2 inh | PINK1 modulator | TRPV1 potentiator
8) CCCCNC(=O)CSc1nc2n[nH]c(C)c2c(=N)n1-c1cccc(Cl)c1C
  13% | 3 | -1 | 7.4 | 3 | 3.7% | -14
5) Cc1ccccc1-n1ccnc1SCC(=O)NC1CCCC1
  6% | -1 | . | -0.8 | -5 | 0.7% | 1
10) Cc1cc(NC(=O)Cn2c(C)nc3ccccc3c2=O)ccc1Br
  -1% | -9 | -4 | -1.9 | 2 | ? | 8
14) CN(C)C(=O)C[n+]1cccc(/C=N/O)c1
  14% | -7 | -16 | -1.0 | -2 | 2.3% | -10
27) Cc1ccc(S(=O)(=O)N(C)Cc2nc(-c3ccncc3)no2)cc1
  32%[activator] | 18 | 6 | -2.0 | 1 | -2.3% | 26
19) Cc1nc(COc2ccc(C(=O)Nc3ccccc3N3CCOCC3)cc2)cs1
  12% | 13 | 0 | 4.0 | -3 | 1.6% | -5

Grouped by structure: the compounds so far with a thiophene ring, fused or not.
Values run as follows: Sfp inh | D2 PAM | CtBP-E1A blk | D2 ag | Six1-Eya2 inh | PINK1 modulator | TRPV1 potentiator
6) COc1ccc(-c2csc3ncnc(N4CCN(S(=O)(=O)c5cccc(F)c5)CC4)c23)cc1
  . | -6 | 5 | -2.2 | 1 | -1.3% | -4
22) C=C(C)Cn1c(-c2cccs2)n[nH]c1=S
  -16% | -6 | 2 | 2.2 | -3 | 0.9% | 0

Additional records follow:
Values run as follows: Sfp inh | D2 PAM | CtBP-E1A blk | D2 ag | Six1-Eya2 inh | PINK1 modulator | TRPV1 potentiator
31) CCN(CCCNC(=O)C1CCN(S(=O)(=O)c2cnc[nH]2)CC1)c1ccccc1
  1% | -6 | -2 | -0.9 | -2 | 1.3% | 3
32) CCOc1ccc(N(C(=O)c2snc(C(N)=O)c2N)C(C(=O)NCC2CCCO2)c2ccco2)cc1 (stereo unspecified)
  21% | -5 | -9 | -1.1 | -6 | -0.3% | -2
33) CCNS(=O)(=O)c1cc(-c2nnc(OC)c3ccccc23)ccc1C
  13% | 1 | ? | -6.4 | ? | 0.6% | -26
34) CCOC(=O)C1CCCCN1C(=O)c1oc2c(Cl)cc(C)cc2c1C (stereo unspecified)
  -15% | -37 | 4 | 0.4 | 12 | 4.9% | -10
35) Cc1ccc(SC(CC(=O)c2ccc(C)cc2)C(=O)O)cc1 (stereo unspecified)
  11µM* | -4 | -3 | -1.5 | 12 | 0.4% | 0
36) COC(=O)c1cc(S(=O)(=O)N2CCC(C)CC2)ccc1F
  15% | 0 | 13 | -3.5 | 2 | 0.4%[38.3 µM] | 14
37) CCOC(=O)c1ccc(NC2c3ncccc3C(=O)N2Cc2ccc(F)cc2)cc1 (stereo unspecified)
  16% | -5 | 41 | -1.6 | 16 | 3.8%[38.3 µM] | -1
38) CCCC(C)NC(=O)Cn1c(=O)c2c(ncn2CCC(C)C)n(Cc2ccccc2)c1=O (stereo unspecified)
  41%[activator] | -1 | 3 | -0.9 | -7 | ? | 6
39) CCOC(=O)CCC(=O)Nc1ccc(S(=O)(=O)N2CCc3ccccc32)cc1
  13% | -8 | 10 | -0.6 | -2 | 1.0% | -4
40) Cc1csc(C(=O)O)c1NC(=O)c1ccc(F)cc1
  24% | -4 | -1 | -0.7 | 5 | -2.9% | -9
41) COc1ccc(CCN(C)S(=O)(=O)c2cn(C)c(=O)n(C)c2=O)cc1OC
  . | 0 | -3 | -3.7 | 3 | 5.5% | -24
42) O=C(O)COc1ccc2c(c1)OCCO2
  6% | -8 | 10 | -3.1 | 2 | -1.2% | 7
43) Clc1ccc2nc(C(Cl)(Cl)Cl)[nH]c2c1
  . | -1 | 13 | -1.1 | 14 | 1.3% | .
44) O=C(CSc1ccc2nnc(CCNC(=O)c3ccc(F)cc3)n2n1)NCC1CCCO1 (stereo unspecified)
  10% | 15 | 5 | -2.1 | -8 | 2.8% | -2
45) CS(=O)(=O)N1CCc2cc(S(=O)(=O)Nc3ccc4c(c3)OCCO4)ccc21
  6% | 15 | 1 | 2.3 | -3 | -0.3%[38.3 µM] | 2
46) O=C(C(c1ccccc1)c1ccccc1)N1CC[C@@]2(O)CCCC[C@H]2C1
  14% | -2 | 0 | -4.4 | 13 | 0.0% | -6
47) COCCn1nnnc1C(c1ccc(Cl)cc1)N1CCN(C(=O)c2ccco2)CC1 (stereo unspecified)
  8% | -36 | -10 | -5.8 | 0 | 2.2% | -2
48) COc1ccc(-n2c(CNC(=O)COc3ccc(Cl)cc3)n[nH]c2=S)cc1
  8% | -27 | 17 | 3.7 | -2 | 0.2% | 23
49) CCOc1ccc(OCC)c(NC(=O)C2C3C=CC(O3)C2C(=O)NCc2ccco2)c1 (stereo unspecified)
  -2% | -10 | -6 | -4.9 | -5 | 3.3%[38.3 µM] | -11
50) Cc1ccc(F)c(NC(=O)c2cncn2-c2ccccc2)c1
  17% | -2 | 3 | -1.9 | -4 | -0.2% | -6
51) CCCN(CCC)c1nc(N(CCC)CCC)[nH]c(=O)n1
  4% | 1 | 4 | -3.8 | -4 | 4.0% | -4
52) CCN(CC)S(=O)(=O)c1cccc(-c2n[nH]c(=S)n2C)c1
  -5% | -14 | 6 | -3.7 | 5 | 0.1% | -14

Ordered by value in Sfp inh (rising): 3 of the compounds above
| entry | Compound | Sfp inh |
| --- | --- | --- |
| 49 | CCOc1ccc(OCC)c(NC(=O)C2C3C=CC(O3)C2C(=O)NCc2ccco2)c1 (stereo unspecified) | -2% |
| 42 | O=C(O)COc1ccc2c(c1)OCCO2 | 6% |
| 33 | CCNS(=O)(=O)c1cc(-c2nnc(OC)c3ccccc23)ccc1C | 13% |

Down the list, as entered above:
Sfp inh for nos. 36–40, in order: 15%, 16%, 41%[activator], 13%, 24%
